Source: PubChem
OX1R antag: blocks the human orexin 1 receptor | inhibition, % at 6.6 µM | O43613 | 330,000 compounds, 1.8% hits | OX1R-expressing cells, FRET antagonist read-out; in the data active = inhibition mostly above about 38%, no sharp cut-off; inactive = mostly below about 40%;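 note: 0% = agonist challenge alone and 100% = reference antagonist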
Target sequence (O43613 whole entry, looked up): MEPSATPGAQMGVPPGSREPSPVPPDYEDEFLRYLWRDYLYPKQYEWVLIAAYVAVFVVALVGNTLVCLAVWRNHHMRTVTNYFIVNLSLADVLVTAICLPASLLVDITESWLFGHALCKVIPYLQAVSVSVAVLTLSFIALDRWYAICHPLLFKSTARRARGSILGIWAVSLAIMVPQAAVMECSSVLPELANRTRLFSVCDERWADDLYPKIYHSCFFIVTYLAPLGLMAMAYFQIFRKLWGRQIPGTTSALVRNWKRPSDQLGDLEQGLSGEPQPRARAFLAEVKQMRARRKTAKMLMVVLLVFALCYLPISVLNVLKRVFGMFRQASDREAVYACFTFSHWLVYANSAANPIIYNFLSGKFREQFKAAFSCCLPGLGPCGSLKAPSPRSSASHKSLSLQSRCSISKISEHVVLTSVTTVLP
STK33 inh: inhibitors of human STK33 kinase; purified STK33, MBP phosphorylation, ADP-Glo luminescence; inhibition, % at 10 µM; 320,000 compounds, 0.073% hits; AID 2661;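 active = inhibition at or above 25%, using the most active replicate where run in duplicate; inactive = inhibition below 25%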
Target sequence (Q9BYT3 whole entry, looked up): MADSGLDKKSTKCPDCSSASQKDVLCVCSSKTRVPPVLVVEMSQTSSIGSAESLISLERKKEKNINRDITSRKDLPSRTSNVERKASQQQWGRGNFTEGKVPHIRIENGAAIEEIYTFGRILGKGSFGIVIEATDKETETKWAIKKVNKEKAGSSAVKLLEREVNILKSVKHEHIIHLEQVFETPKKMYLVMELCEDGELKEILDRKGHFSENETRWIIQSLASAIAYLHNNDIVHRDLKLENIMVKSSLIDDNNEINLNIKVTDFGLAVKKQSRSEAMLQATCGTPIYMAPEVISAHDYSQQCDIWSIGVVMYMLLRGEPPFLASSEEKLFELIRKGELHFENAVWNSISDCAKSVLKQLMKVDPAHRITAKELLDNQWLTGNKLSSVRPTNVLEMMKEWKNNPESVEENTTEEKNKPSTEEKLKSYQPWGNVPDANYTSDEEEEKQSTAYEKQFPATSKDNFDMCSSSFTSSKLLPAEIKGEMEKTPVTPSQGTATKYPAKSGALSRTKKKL
The depositor's hits bear a star. Some of the compounds tested, and most or all hits are left out here.

smiles,OX1R antag,STK33 inh
COc1ccccc1NC(=O)C(=O)N(c1cccnc1)C(C(=O)NC(C)(C)C)c1ccccc1F (stereo not given),7,-0.7
CC(C)(C)NC(=O)COC(=O)c1ccc(Cl)nc1,1,0.4
O=C(CN(c1ccccc1)S(=O)(=O)c1ccc(F)cc1)NC1CCS(=O)(=O)C1 (stereo not given),0,-0.4
COc1ccc(/C=C/C(=O)c2cc(Cl)cc(Cl)c2O)c(OC)c1,16,-0.8
O=C(CSc1nnc(C2CC2)n1-c1ccccc1)Nc1ccc(N2CCOCC2)cc1,6,-1.5
NS(=O)(=O)c1ccc(CCNC(=O)CNC(=O)Cc2ccccc2)cc1,1,-1.6
CC12CCC(=O)N1C(C(=O)Nc1nc(-c3ccccc3)cs1)CS2 (stereo not given),16,-0.8
O=C(c1ccc2nc(N3CCCCC3)sc2c1)N1CCN(Cc2ccc3c(c2)OCO3)CC1,12,-1.2
COC(=O)C1CN(C(=O)COc2ccc(Cl)c(C)c2)c2ccccc2O1 (stereo not given),4,-2.2
Cc1cc(C)n(-c2nc3nonc3nc2-n2nc(C)cc2C)n1,2,-0.4
O=C1CN(C(=O)c2ccc(F)cc2)c2ccccc2N1,11,-1.3
Cc1ccc(S(=O)(=O)Cn2nnnc2C(c2ccc(F)cc2)N2CCCCC2)cc1 (stereo not given),12,-1.8

(further entries)
smiles,OX1R antag,STK33 inh
O=C(NCCc1c[nH]c2ccccc12)/C(=C/c1cccnc1)NC(=O)c1ccco1,12,-0.2
CC(NS(=O)(=O)c1ccc(Cl)cc1)C(=O)Nc1ccc2c(c1)OCCO2 (stereo not given),8,-2.4
O=C1/C(=C\c2ccc(-c3ccccc3[N+](=O)[O-])o2)C(c2ccccc2)=NN1c1ccccc1,45,-0.5
O=C(c1cc(-c2ccccc2Cl)on1)N1CCCC1,16,1.2
COc1cc([N+](=O)[O-])ccc1NC(=O)CCCOc1ccccc1,18,-0.4
Cc1ccnc(NC(=O)C2CCN(S(=O)(=O)c3ccc(C)c(C)c3)CC2)c1,12,0.0
Cc1ccccc1NS(=O)(=O)c1cc(C(=O)N2CCCC2)ccc1Cl,14,-2.9
COc1ccc(-n2c(SCc3ccc(C#N)cc3)nnc2-c2ccccn2)cc1,18,-0.3
CSCC[C@H](NC(=O)C1CCN(C(=O)[C@@H](N)Cc2ccccc2)CC1)C(=O)O,-9,-1.4
CC(OC(=O)c1ccc(S(=O)(=O)N(C)c2ccccc2)cc1)C(=O)NCCC1=CCCCC1 (stereo not given),9,-1.8
CC(=O)c1cccc(NC(=S)NC(=O)CC(C)C)c1,9,-1.1
Cc1ccccc1Nc1nc(N)nc(COC(=O)[C@@H](NC(=O)c2ccccc2Cl)C(C)C)n1,34,0.1

(list continues)
smiles,OX1R antag,STK33 inh
Cc1csc(NC(=O)CCNC(=O)c2ccccc2Cl)n1,3,0.7
Cc1c([N+](=O)[O-])c([N+](=O)[O-])nn1CC(=O)NCc1cccnc1,47,-1.3
O=C(Nc1cccc(C(F)(F)F)c1)c1cccc(NS(=O)(=O)c2ccc(O)c(C(=O)O)c2)c1,6,0.4
COc1ccc(N2CCN(C(=O)c3cc4c(s3)-c3ccccc3OC4)CC2)cc1,0,-0.6
CCc1ccc(-c2cc(C(=O)Nc3c(C)n(C)n(-c4ccccc4)c3=O)c3ccccc3n2)s1,14,-1.3
Cc1cccc(CNC(=O)c2ccccc2N)c1,6,-1.1
O=C(OC(C(=O)NCc1ccc2c(c1)OCO2)c1ccc(Cl)cc1)c1ccco1 (stereo not given),14,0.2
CC(=O)Nc1ccc(NC(=O)c2ccc(C)c(S(=O)(=O)Nc3cccc(C)c3)c2)cc1,7,-1.7
CSCC(=O)NC1CCCN(C2Cc3ccccc3C2)C1 (stereo not given),10,-0.4
Cc1ccccc1NC(=O)Cc1nc(COC(=O)c2ccc(Cl)c(S(N)(=O)=O)c2)cs1,17,-0.3
O=C(CNCCN1CCOCC1)Nc1ccccc1Sc1ccccc1,11,-1.1
c1ccc2[nH]c(N3CCOCC3)nc2c1,21,-0.9

More compounds:
smiles,OX1R antag,STK33 inh
COc1nc(N(C)C)nc(-n2nnc(C(C)=O)c2C)n1,32,-1.4
COc1ccc(CN(CCC#N)C(=S)NC(=O)c2ccccc2)cc1,6,-1.3
Cc1cc(C)c2c(c1)c(C)cc1nnc(SCC(=O)c3cccs3)n12,18,-2.1
Cc1ccccc1-c1noc(-c2ccccc2C(=O)O)n1,15,0.2
N/C(COc1cccc(Cl)c1)=N\NS(=O)(=O)c1ccccc1,4,0.1
CCOc1cc(C2C3=C(CC(C)(C)CC3=O)OC3=C2C(=O)CC(C)(C)C3)cc([N+](=O)[O-])c1O,22,-0.7
CC(=O)c1cccc(Nc2cc(C)nc3ccc(C)cc23)c1,13,-1.5
O=C(Nc1ccccc1)c1ccccc1NC(=O)[C@H]1CCCC[C@H]1C(=O)O,-3,-0.9
COc1ccccc1NC(=O)C(C(C)C)N1C(=O)c2ccccc2C1=O (stereo not given),7,-0.8
S=c1[nH]nc(-c2cc(-c3ccccc3)n[nH]2)n1/N=C/c1ccc(Cl)cc1,17,0.0
COc1ccc(-c2noc(-c3ccccc3C(=O)Nc3cccc(OC)c3)n2)cc1,20,-0.8
COC(=O)c1ccc(NC(=O)c2ccc3nsnc3c2)cc1,12,-1.0

The list continues.
smiles,OX1R antag,STK33 inh
Cc1cc(C)n2nc(Cc3ccccc3)nc2n1,-4,-1.9
CC1=NN(c2ccccc2)C(=O)/C1=C\c1cn(CCC#N)nc1-c1ccc(Cl)cc1,24,-0.1
Cc1ccc(-c2nc3c(c(SCC(=O)N4CCOCC4)n2)Cc2c(CO)cnc(C)c2O3)cc1,38*,0.9
CC(=O)c1ccc(NC(=O)C2CC(=O)Nc3nc4ccccc4n32)cc1 (stereo not given),10,1.7
CSc1ccccc1NC(=O)c1cc(C(C)C)on1,3,-0.3
CC(C)(C)C(=O)NNC(=O)COc1ccc2ccccc2c1Br,15,0.8
COc1ccc2nc(C)cc(SCC(=O)Nc3c(C)cc(C)cc3C)c2c1,3,-0.3
Cc1cc(C)nc(NS(=O)(=O)c2ccc(Br)s2)c1,7,-1.6
COc1ccccc1NC(=O)NC1(C(=O)N2CCCCCC2)CCCCC1,38,-0.3
O=C1C2C3C=CC(C3)C2C(=O)N1/N=C/c1ccc(-c2ccccc2[N+](=O)[O-])o1 (stereo not given),41,-1.2
c1cc(Nc2ncnc3sccc23)cc(-c2nnc3n2CCCCC3)c1,9,1.7
CCOC(=O)c1ccc2c(c1)nc(SCC(=O)c1ccco1)n2CC,27,-0.4

More entries:
smiles,OX1R antag,STK33 inh
Cc1cc(C)n(Cc2ccc(Cl)nc2)n1,22,-0.1
CCOc1ccc(NC(=S)Nc2cccnc2)cc1,6,-1.0
COc1ccc(S(=O)(=O)Nc2ccc(O)c3ccccc23)cc1,43*,-0.3
CC(=O)NCC(=O)OCC(=O)c1ccccc1,7,-0.2
COc1ccc2nc(NC3=NC(C(=O)Nc4ccc(C)cc4)CC(=O)N3)nc(C)c2c1 (stereo not given),-5,-0.9
NC(=O)CC(NC(=O)c1ccccc1)c1ccc(NCCN2CCOCC2)c([N+](=O)[O-])c1 (stereo not given),27,-1.6
O=S(=O)(Cc1ccc(Cl)cc1)NCC1CCCO1 (stereo not given),13,1.2
Cc1noc(C)c1CCC(=O)O,4,-1.1
O=C(CN(C(=O)c1ccccc1Cl)N1C(=O)CCCC1=O)c1ccc(Cl)cc1,6,0.1
CC(C)C[C@H](NC(=O)NCCc1ccc(Cl)cc1)C(=O)O,25,-0.8
CN1CCN(C(=O)C(C(=O)c2ccc(F)cc2)n2ccccc2=O)CC1 (stereo not given),12,-0.7
Cc1ccc(Cl)cc1N1CCN(c2cccc[n+]2C)CC1,12,2.3

Remaining list, next part.
smiles,OX1R antag,STK33 inh
CCN1CCC(NCCc2ccc(F)cc2)CC1,16,-3.5
O=C(COc1cc(F)ccc1[N+](=O)[O-])NCCCc1ccccc1,23,-0.8
CCN1CCn2c3c(c4cc(Br)ccc42)CCCC31 (stereo not given),7,-0.9
O=S(=O)(Nc1ccc2ccccc2c1)c1ccccc1,8,-1.7
CCOc1cc(CN2CCC(CO)(Cc3cccc(C(F)(F)F)c3)CC2)ccc1OC,18,-0.4
Cc1ccc(-c2csc3ncnc(-n4nc(C)cc4N)c23)cc1,34,-1.2
Clc1ccc(-c2nnc(-c3ccccc3)nc2N2CCSCC2)cc1,38,-0.2
CS(=O)(=O)N(CC(=O)NCc1ccncc1)c1cc(Cl)ccc1Cl,25,-1.4
COC(=O)c1ccc(SCc2ccccc2)nc1,0,-0.7
CC(C)c1ccc(/C=C/c2[nH]c(=O)[nH]c(=O)c2[N+](=O)[O-])cc1,24,1.1
CC1(C)N([O-])C(c2ccccc2)=C[N+](=O)C1(C)C,9,-1.2
Clc1ccc(OCCN2CCOCC2)cc1,8,-0.7

Whole records from above. Order of screens: OX1R antag | STK33 inh
Shown for O=C(COc1cc(F)ccc1[N+](=O)[O-])NCCCc1ccccc1 = 23 | -0.8
Shown for CCN1CCn2c3c(c4cc(Br)ccc42)CCCC31 (stereo not given) = 7 | -0.9
Shown for Clc1ccc(-c2nnc(-c3ccccc3)nc2N2CCSCC2)cc1 = 38 | -0.2
Shown for CCN1CCC(NCCc2ccc(F)cc2)CC1 = 16 | -3.5
Shown for CC1(C)N([O-])C(c2ccccc2)=C[N+](=O)C1(C)C = 9 | -1.2

Next section:
smiles,OX1R antag,STK33 inh
Cc1ccc(C2(C)NC(=O)N(CC(=O)N3CCN(S(=O)(=O)c4cccs4)CC3)C2=O)cc1 (stereo not given),10,-0.5
Cc1ccc(N2CCN(C(=O)c3nn(C)c4c3CS(=O)(=O)c3ccccc3-4)CC2)c(C)c1,8,0.5
CSc1ccc(CNCc2ccc3c(c2)OCO3)cc1,-2,-0.5
O=C(NCCN1CCCC(O)C1)c1cc(COc2ccc(F)cc2Cl)on1 (stereo not given),4,1.3
COc1cc(/C=C(\NC(=O)c2ccccc2)C(=O)NCC(=O)O)c([N+](=O)[O-])cc1OC,24,-0.7
CC(=O)Nc1ccc(C(=O)OCc2ccc(F)cc2Cl)cc1,13,-0.5
O=c1cc(/C=C/c2ccccc2)oc2ccccc12,35,1.6
S=C(NCc1ccco1)N1CCN(C(c2ccccc2)c2ccccc2)CC1,10,-4.6
Cc1ccc2cc(CCNC(=O)c3cccs3)c(=O)[nH]c2c1C,7,0.5
O=C(Nc1ccccc1N1CCOCC1)c1cccnc1,5,-0.1
CCOc1ccc(C(=O)OCC(=O)c2c(N)n(C)c(=O)n(C)c2=O)cc1OCC,-2,-2.0
O=C(CC(=O)N/N=C/c1cccs1)NCc1ccccc1,14,0.5

Fetched one by one from the list above:
smiles,OX1R antag,STK33 inh
O=C(Nc1ccccc1N1CCOCC1)c1cccnc1,5,-0.1
COc1cc(/C=C(\NC(=O)c2ccccc2)C(=O)NCC(=O)O)c([N+](=O)[O-])cc1OC,24,-0.7
O=C(NCCN1CCCC(O)C1)c1cc(COc2ccc(F)cc2Cl)on1 (stereo not given),4,1.3
CSc1ccc(CNCc2ccc3c(c2)OCO3)cc1,-2,-0.5

Next section:
smiles,OX1R antag,STK33 inh
CCc1nnc(NC(=O)CSc2nnc(COc3ccccc3)n2-c2ccc(C)cc2)s1,11,-1.5
CCN(CC)c1nc(N)n(CCSC(=S)N(C)C)c(=O)n1,5,-1.5
O=C(O)CC(NCc1ccco1)C(=O)OCC1CCCO1 (stereo not given),27,1.9
CCOC(=O)CSc1nnc(Cc2ccccc2)n1Cc1ccco1,7,-0.2
O=C(O)c1ccc(Nc2cnc3ccccc3n2)cc1,18,3.5
COC(=O)Cc1ccc(NC(=S)NCC(C)C)cc1,6,0.0
COc1ccc(C(=O)N/N=C/c2ccc(N(C)c3ccccc3)cc2)cc1,6,-0.5
C=C(C)C(=O)Oc1ccc(N2C(=O)[C@@H]3C4C=CC(C4)[C@@H]3C2=O)cc1,5,-1.4
Cc1nc2cc(NC(=O)NCc3ccccc3)ccc2o1,5,-0.6
COC(=O)c1ccccc1NC(=O)COC(=O)c1ccc(C)c(NC(=O)c2ccco2)c1,12,-2.0
COc1cc(CNC(=O)c2ccc(Cn3nc(C)c(Cl)c3C)o2)cc(OC)c1,27,0.0
Cc1ccccc1C(=O)NN1CC(C(=O)OCc2ccc(Cl)c(Cl)c2)CC1=O (stereo not given),17,0.0

The listing continues.
smiles,OX1R antag,STK33 inh
COc1cc(NC(=O)COc2ccc(Br)cc2)ccc1NC(=O)C(C)C,15,1.2
COc1ccc(OC)c(S(=O)(=O)NCc2cn3cccc(C)c3n2)c1,4,-1.2
CCC(=O)Nc1c(C(=O)N2CCN(c3ccccn3)CC2)cnn1-c1ccc(Cl)cc1,7,-0.8
COc1ccc(-c2cc3ccc(OCC(N)=O)cc3oc2=O)cc1OC,31,1.0
